T cruzi repl = T. cruzi replication inhibition. T. cruzi beta-gal in NIH3T3, luminescence, 90 h. 300,000 compounds, 1.4% hits. inhibition, % (no concentration beside the values);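 active means mean inhibition across valid replicates above about 55%, limit read from the data; inconclusive means mean below that limit but half or more replicates reach it; inactive means mean below it, under half of replicates reach it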;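 further: signal also drops with host cell toxicity which is not excluded here; 0% = plate median of DMSO wells and 100% = zero luminescence signal; higher percent means less beta-gal luminescence so fewer parasites; stock transfer was 50 nL into about 50 µL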
A1 inh = inhibitors of the anti-apoptotic protein A1, read as caspase activation; MEF A1-2A-BIM cells, Caspase-Glo 3/7 luminescence, 3 h; percent of clofoctol response, vehicle zero; caspase activation, % (no concentration beside the values); 330,000 compounds, 0.066% hits; AID 2462;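 active means over half of replicate activation scores above 10%, or exactly half above 10 with the replicate mean above 10; inconclusive means replicate mean below 10 yet half the replicates above 10; inactive means over half of replicates below 10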;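 further: wells of about 30 µL received 50 nL stock; many hits fall short of the cut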
UCH37 inh = human UCH37 deubiquitinating enzyme inhibition; purified proteasome/UCH37, Ub-AMC cleavage fluorescence; inhibition, % (no concentration beside the values); 330,000 compounds, 0.33% hits; AID 588478;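 active means mean of two replicates above 20%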;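 further: 0% = compound-free wells with enzyme and 100% = wells lacking proteasome; stock transfer was 100 nL into about 20 µL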
Target sequence (Q9Y5K5 whole entry, looked up): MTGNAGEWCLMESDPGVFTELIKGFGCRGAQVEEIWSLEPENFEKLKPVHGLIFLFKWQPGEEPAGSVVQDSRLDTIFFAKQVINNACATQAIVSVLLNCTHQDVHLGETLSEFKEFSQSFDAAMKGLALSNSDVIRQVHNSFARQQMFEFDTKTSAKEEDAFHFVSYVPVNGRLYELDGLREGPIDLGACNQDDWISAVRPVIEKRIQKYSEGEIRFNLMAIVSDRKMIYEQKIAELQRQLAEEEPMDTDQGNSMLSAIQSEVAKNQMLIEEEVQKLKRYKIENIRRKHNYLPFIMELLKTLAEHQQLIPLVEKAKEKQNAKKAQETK
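Signal – fluorescence, ex 355 nm, em 460 nm · System – Proteasome-bound UCH37 · Input – 0.15 nM proteasome as dispensed · Timing – 30 min preincubation with enzyme, 25 min cleavage at room temperature · Read-out basis – percent inhibition of cleavage signal versus uninhibited and no-proteasome wells · Medium – Tris-HCl pH 7.4 with ATP-MgCl2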
AF4-AF9 inh = blocks AF4 peptide binding to human AF9; P42568; AlphaScreen, biotin-AF4 peptide binding to FLAG-AF9; inhibition, % at 10 µM; 350,000 compounds, 0.47% hits;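 active means every replicate reaching a set inhibition limit, whatever the replicate mean, cut at about 25% in these data; inconclusive means mean inhibition reaches that limit but some replicates miss it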;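 further: 0% = plate neutral control median and 100% = total signal loss; the record names both 10 and 1 µM as test concentration; the first replicate is given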
Target sequence (P42568 whole entry, looked up): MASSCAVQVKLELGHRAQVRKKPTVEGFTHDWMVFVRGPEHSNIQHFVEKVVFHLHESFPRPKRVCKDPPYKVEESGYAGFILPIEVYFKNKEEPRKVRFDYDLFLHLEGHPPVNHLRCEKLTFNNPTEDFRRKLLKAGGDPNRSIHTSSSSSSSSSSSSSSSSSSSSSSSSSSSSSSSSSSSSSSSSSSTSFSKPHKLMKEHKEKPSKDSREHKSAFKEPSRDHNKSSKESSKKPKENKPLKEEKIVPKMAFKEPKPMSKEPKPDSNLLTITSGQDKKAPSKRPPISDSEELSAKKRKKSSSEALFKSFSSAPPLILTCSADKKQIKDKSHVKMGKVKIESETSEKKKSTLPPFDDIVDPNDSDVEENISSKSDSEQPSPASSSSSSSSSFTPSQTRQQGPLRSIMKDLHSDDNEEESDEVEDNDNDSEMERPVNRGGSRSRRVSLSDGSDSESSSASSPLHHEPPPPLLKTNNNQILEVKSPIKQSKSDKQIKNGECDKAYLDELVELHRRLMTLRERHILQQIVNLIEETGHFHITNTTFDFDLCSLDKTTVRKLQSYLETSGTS
Ecoli growth = blocks Escherichia coli growth | 330,000 compounds, 0.21% hits | OD600, 23 h; stronger effect = lower value | OD600 absorbance (no concentration beside the values);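 active means OD600 absorbance below the run mean of sample wells minus 3.6 SD, in any replicate, cut at about 0.56 in these data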;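 further: stock transfer was 300 nL into about 60 µL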
Beta apoptosis = beta cell apoptosis inhibition; INS-1E cytokine-induced death, ATP luminescence, 48 h; percent of positive-control rescue, neutral wells zero; protection from apoptosis, % (concentration not given with the values); 300,000 compounds, 0.8% hits; AID 435005;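 active means all replicates at 75% or more, or half of them and the mean; inconclusive means half reach 75% but not the mean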;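 further: 0% = cytokine-treated negative control wells and 100% = positive control rescue; higher means more ATP so stronger rescue from cytokine killing; wells of about 40 µL received 100 nL stock; the first replicate is given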
rRNA inh HTS = inhibitors of bacterial rRNA selective over humanized ribosomes | E. coli WT GFP vs humanized-ribosome RFP mutants, fluorescence, 24 h; stronger effect = lower value; DMSO median 0, no signal -100 | GFP signal change (wild-type ribosome), % (test concentration not listed) | 350,000 compounds, 1.6% hits | AID 720706;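 active means significant combined selectivity score with lowered wild-type GFP, culture density cut under 30%, mutant RFP and density less affected; inactive means any of these conditions unmet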; further: one replicate is shown; some compounds called inactive have numbers as strong as hits
FGF22 binding = binders of recombinant human FGF22 by thermal shift. AID 651658. calls only at 9.99 µM. 340,000 compounds, 1.5% hits. SYPRO orange fluorescence; percent of sucrose octasulfate shift, DMSO zero;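 active means melting point raised past a set limit in the mean and every replicate; inconclusive means no clear call; three in four hits are not shown here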
Target sequence (Q9HCT0 whole entry, looked up): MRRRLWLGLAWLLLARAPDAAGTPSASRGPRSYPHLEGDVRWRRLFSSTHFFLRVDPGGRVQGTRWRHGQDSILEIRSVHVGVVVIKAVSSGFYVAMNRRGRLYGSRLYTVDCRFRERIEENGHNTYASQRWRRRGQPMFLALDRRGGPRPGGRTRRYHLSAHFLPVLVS
rRNA inh HTS OD600 = also measured in rRNA inh HTS; calls as there; OD600 change, %; measured here: OD600 growth;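 optical density of the mix in the first replicate; 0 = DMSO median and -100 = no signal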
rRNA inh HTS RFP = further read-out of rRNA inh HTS, marked with its call; RFP signal change, %; measured here: RFP humanized mutant strains;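 first replicate; 0 = DMSO median and -100 = no signal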
Starred values were filed as active, the others as inactive; i = inactive; ? = inconclusive; / = not tested or not shown. Only part of the results is shown (hit frequency here may not be typical).

SMILES	T cruzi repl	A1 inh	UCH37 inh	AF4-AF9 inh	Ecoli growth	Beta apoptosis	rRNA inh HTS	rRNA inh HTS OD600	rRNA inh HTS RFP	FGF22 binding
COC(=O)c1ccc(NC(=O)Nc2ccc(C)cc2)cc1	17	-0.5	5.0	/	0.7	-18	/	/	/	/
Cn1nccc1C(=O)N1CCN(c2cccc(Cl)c2)CC1	-13	0.5	6.9	-2.1	0.69	1	3	1	-1.6	i
O=C1NCCCc2nc(Oc3ccccc3)sc21	-7	0.6	6.0	/	0.66	-8	/	/	/	/
Cc1nc2c(-c3ccc(Cl)cc3)cnn2c(N)c1-c1ccc(F)cc1	35	-0.5	-309	-3.0	0.69	17	6	6	0.2	i
Cc1ccc(C(=O)NNC(=O)c2cccc(S(=O)(=O)N3CCOCC3)c2)cc1	/	1.0	-1.0	-4.1	0.7	4	15	13	1.3	i
Cc1c(OCC(=O)NCC2CCC(C(=O)O)CC2)ccc2c3c(c(=O)oc12)CCC3 (stereo not given)	-12	-0.2	-22	-0.6	0.72	-6	-9	-9	-15	i
Cc1cc(=O)oc2cc(OCC(=O)OCC(=O)Nc3ccc(C(N)=O)cc3)ccc12	-1	0.4	-21	-31	0.66	-2	8	7	2.0	i
CCC(C)NCCCOc1ccc(Cl)cc1C(C)(C)C (stereo not given)	25	0.3	2.9	/	0.7	6	/	/	/	/
COc1cc(C(=O)NCC(=O)N2CCN(S(=O)(=O)c3cc(C)ccc3C)CC2)cc(OC)c1OC	15	0.3	3.8	0.0	0.7	1	-12	-14	-2.7	i
COc1ccc2c(C)cc(N3CCN(c4ccc(F)cc4)CC3)nc2c1	23	0.9	0.7	-1.3	0.65	1	4	1	-3.8	i
COc1ccc(-c2c3c(nc4sc5c(Cl)nc(C)nc5c24)CCC3)cc1	-2	1.4	-1.1	/	0.73	0	/	/	/	/
CCn1cc(CNCc2cn[nH]c2-c2cc3ccccc3o2)cn1	12	1.3	3.6	0.7	0.64	-4	10	2	2.1	i
CN(C(=O)c1ccc(S(=O)(=O)N2CCCC2)cc1)C1CCCCC1	3	0.5	1.6	/	0.65	/	/	/	/	/
NNc1nc(-c2ccccc2)c2cc(Br)ccc2n1	4	0.3	4.0	2.4	0.7	4	-12	-15	-5.9	i
CC(=O)Nc1ccc(S(=O)(=O)Nc2cccc(N(C)S(C)(=O)=O)c2)cc1	-12	-0.5	1.5	/	0.73	0	/	/	/	/
CCOc1ccccc1/C=C(\NC(=O)c1ccccc1)C(=O)NCCC(=O)O	3	1.4	3.0	3.6	0.69	-4	2	4	-15	i
O=C(N[C@@H](Cc1ccccc1)C(=O)N1CCC2(CC1)NCCc1[nH]cnc12)c1cccc(F)c1	-13	0.5	-0.3	2.0	0.67	-6	4	9	-1.7	i
CC(C)c1nnc(NC(=O)CCc2ccccc2)s1	-11	0.6	0.0	-2.0	0.69	2	10	10	0.1	i
O=C(O)c1ccc(COc2ccc(CO)cc2Cl)cc1	-22	-2.4	1.5	/	0.67	1	/	/	/	/
COC(=O)C(NC(C)=O)(Nc1nc2c(s1)CCCC2)C(F)(F)F (stereo not given)	3	0.1	5.1	/	0.77	-5	/	/	/	/

Reformatted bar-delimited: part of the list above
molecule | T cruzi repl | A1 inh | UCH37 inh | AF4-AF9 inh | Ecoli growth | Beta apoptosis | rRNA inh HTS | rRNA inh HTS OD600 | rRNA inh HTS RFP | FGF22 binding
O=C1NCCCc2nc(Oc3ccccc3)sc21 | -7 | 0.6 | 6.0 | / | 0.66 | -8 | / | / | / | /
Cc1nc2c(-c3ccc(Cl)cc3)cnn2c(N)c1-c1ccc(F)cc1 | 35 | -0.5 | -309 | -3.0 | 0.69 | 17 | 6 | 6 | 0.2 | i

Ordered by SMILES length (highest first): part of the list above.
SMILES	T cruzi repl	A1 inh	UCH37 inh	AF4-AF9 inh	Ecoli growth	Beta apoptosis	rRNA inh HTS	rRNA inh HTS OD600	rRNA inh HTS RFP	FGF22 binding
O=C(N[C@@H](Cc1ccccc1)C(=O)N1CCC2(CC1)NCCc1[nH]cnc12)c1cccc(F)c1	-13	0.5	-0.3	2.0	0.67	-6	4	9	-1.7	i
COc1cc(C(=O)NCC(=O)N2CCN(S(=O)(=O)c3cc(C)ccc3C)CC2)cc(OC)c1OC	15	0.3	3.8	0.0	0.7	1	-12	-14	-2.7	i
Cc1c(OCC(=O)NCC2CCC(C(=O)O)CC2)ccc2c3c(c(=O)oc12)CCC3 (stereo not given)	-12	-0.2	-22	-0.6	0.72	-6	-9	-9	-15	i
Cc1cc(=O)oc2cc(OCC(=O)OCC(=O)Nc3ccc(C(N)=O)cc3)ccc12	-1	0.4	-21	-31	0.66	-2	8	7	2.0	i
Cc1ccc(C(=O)NNC(=O)c2cccc(S(=O)(=O)N3CCOCC3)c2)cc1	/	1.0	-1.0	-4.1	0.7	4	15	13	1.3	i
COc1ccc(-c2c3c(nc4sc5c(Cl)nc(C)nc5c24)CCC3)cc1	-2	1.4	-1.1	/	0.73	0	/	/	/	/
CN(C(=O)c1ccc(S(=O)(=O)N2CCCC2)cc1)C1CCCCC1	3	0.5	1.6	/	0.65	/	/	/	/	/
COc1ccc2c(C)cc(N3CCN(c4ccc(F)cc4)CC3)nc2c1	23	0.9	0.7	-1.3	0.65	1	4	1	-3.8	i
CCn1cc(CNCc2cn[nH]c2-c2cc3ccccc3o2)cn1	12	1.3	3.6	0.7	0.64	-4	10	2	2.1	i
COC(=O)c1ccc(NC(=O)Nc2ccc(C)cc2)cc1	17	-0.5	5.0	/	0.7	-18	/	/	/	/
O=C(O)c1ccc(COc2ccc(CO)cc2Cl)cc1	-22	-2.4	1.5	/	0.67	1	/	/	/	/
CCC(C)NCCCOc1ccc(Cl)cc1C(C)(C)C (stereo not given)	25	0.3	2.9	/	0.7	6	/	/	/	/
CC(C)c1nnc(NC(=O)CCc2ccccc2)s1	-11	0.6	0.0	-2.0	0.69	2	10	10	0.1	i
O=C1NCCCc2nc(Oc3ccccc3)sc21	-7	0.6	6.0	/	0.66	-8	/	/	/	/

New compounds follow.
SMILES	T cruzi repl	A1 inh	UCH37 inh	AF4-AF9 inh	Ecoli growth	Beta apoptosis	rRNA inh HTS	rRNA inh HTS OD600	rRNA inh HTS RFP	FGF22 binding
Nc1c(N(Cc2ccco2)C(=O)c2ccc(Cl)cc2)c(=O)[nH]c(=O)n1Cc1ccccc1	/	-0.6	0.7	-2.8	0.64	-1	-8	-2	1.3	i
CCOC(=O)c1c(C)[nH]c(C(=O)N2CCC(C(=O)OCC)CC2)c1C	-6	-0.1	1.9	-11	0.72	0	1	10	2.0	i
Cc1cccn2c(=O)c3cc(S(=O)(=O)c4ccc(Br)cc4)c(=N)n(C4CCCC4)c3nc12	4	-1.8	-6.4	-0.6	0.72	3	4	7	-0.5	i
COC(=O)c1nnn(-c2nonc2N)c1CSc1nnc(N)s1	-14	0.7	/	6.3	/	-3	6	-3	0.4	i
Oc1c(C(Nc2cccc(C(F)(F)F)c2)c2cccnc2)ccc2cccnc12 (stereo not given)	?	1.3	1.3	/	0.69	5	/	/	/	/
CC(C)(C)c1ccc(C(=O)Nc2ccc(N3CCOCC3)cc2)cc1	12	1.0	-3.4	-30	0.68	7	2	-2	-3.1	i
CCOC(=O)[C@H]1[C@H]2COc3cc(OC)ccc3[C@@H]2N2C(=O)CN(CCc3c[nH]c4ccccc34)C(=O)[C@@]12C	/	-0.2	-0.5	7.1	/	-3	3	2	-0.4	i
Nc1nc(SCc2ccccc2)c2ncn(CCO)c2n1	/	/	2.3	1.6	0.65	/	-1	-2	-14	i
Cc1c(NC(=O)CC(O)(C(F)(F)F)C(F)(F)F)c(=O)n(-c2ccccc2)n1C	-2	0.5	1.3	/	0.69	-5	9	8	4.1	/
CCC1ON(C(C)C)C2c3nc4ccccc4n3CC12 (stereo not given)	-29	0.2	3.6	-3.7	0.69	-1	17	7	21	i
CCCCCC(=O)Nc1nc(C)c(-c2csc(Nc3ccccc3OC)n2)s1	-6	0.8	-5.3	2.2	0.75	2	-7	15	6.9	i
COc1cc(Cl)c(C)cc1NC(=O)c1ccccc1NC(=O)CN1CCN(c2ccccn2)CC1	/	/	-0.7	1.2	0.65	/	-9	-10	3.7	i
O=C(N/C=C/c1ccccc1)c1ccccc1	13	-0.5	3.1	-0.3	/	2	13	26	-0.5	i
Cc1ccccc1C1C(=O)c2ccccc2C1=O	-9	-0.5	6.9	5.7	0.68	-2	5	11	-0.6	i
COC(=O)c1cc(NC(=O)c2ccc(-c3ccccc3)cc2)ccc1Cl	15	-4.0	-1.2	3.2	0.69	-4	4	7	0.2	i
O=C(NCCc1ccccc1)c1noc2c1CCc1ccccc1-2	-3	-1.0	1.2	/	0.72	4	/	/	/	/
CCOc1ccc2oc(C(=O)NNC(=O)c3ccccc3O)c(C)c2c1	3	-0.5	-22	-1.1	0.68	2	-12	-1	1.5	/
CCN(CC)S(=O)(=O)c1ccc(N2CC(C(=O)N3Cc4ccccc4CC3C(N)=O)CC2=O)cc1 (stereo not given)	/	-1.0	5.9	1.3	0.71	3	6	9	0.1	i
CCOC(=O)C(=NCCCN(C)C)NNc1ccc(Br)cc1	-20	0.8	2.6	2.6	0.67	4	14	10	-2.6	i
O=C(C[n+]1ccc(-c2nnc3n2CCCCC3)cc1)c1ccc(Cl)cc1	3	0.2	-1.3	0.1	0.68	2	1	1	8.9	i
COc1ccc(C(=O)c2ccsc2N)cc1	-7	-2.0	2.9	6.7	0.63	-4	4	9	14	i
COc1ccccc1NC(=O)CCCC(=O)OC(C)C(=O)c1ccccc1 (stereo not given)	1	2.0	5.3	-0.8	0.66	-3	6	-3	2.0	/
CCN1CCN(CCCN(Cc2ccco2)C(=S)Nc2ccc(C)c(Cl)c2)CC1	-25	0.1	4.5	9.6	0.69	-15	-4	-2	-0.9	/
Clc1ccc(-n2nnc(-c3cccnc3Cl)n2)cc1Cl	-26	-4.4	-0.1	-25	0.72	-5	13	5	3.2	i
CCc1ccc(OCC(=O)NC2CC(C)(C)NC(C)(C)C2)cc1	-14	-0.2	0.2	-0.7	0.71	-4	14	18	1.1	/
CC(=O)Nc1ccc(OCCOc2ccc(NC(C)=O)cc2)cc1	-1	0.6	3.6	-4.4	0.64	-8	17	14	1.8	i
CN(Cc1cccs1)C(=O)CSc1nc(N)cc(N)n1	-5	-0.1	-2.3	-3.7	0.74	-3	4	7	-0.9	i
COc1cccc(N(CC(=O)NCCSCc2ccc(Cl)cc2)S(C)(=O)=O)c1	-5	1.0	3.2	-6.7	0.67	2	1	-14	-5.3	i
